# Arbovirus anti = antivirals against arbovirus infection, primary screen, cell-based, full library, 10K replicate subset | 0.37% of 200,000 active | inhibition, % at 10 µM | arbovirus infection cell-based antiviral screen | AID 1251, 2008;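 active = inhibition from about 30%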;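 also: bluetongue infection of BSR cells; cell survival read as ATP light after 72 h; 0% = infected wells without compound and 100% = uninfected wells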
# Mtb H37Rv = M. tuberculosis H37Rv growth inhibitors, H37Rv strain (AID 1626). inhibition, % at 10 µM, or IC50 in µM where a hit was titrated. 0.95% of 220,000 active. M. tuberculosis H37Rv growth inhibition; higher % means a stronger effect;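 active = confirmed in a dose series; inconclusive = inhibition above 80% but not taken into the dose series; inactive = below 80% or under 30% at every dose of the series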;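 also: bacteria incubated seven days before Alamar blue readout; 0% = bacteria only wells and 100% = bacteria with antibiotic wells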
# RecA intein inh = Mtb RecA intein splicing inhibitors, primary screen, biochemical, fluorescence, HTS; inhibition, %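 (about 9 µM by stock and volumes)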; cell-free RecA intein splicing; 0.75% of 290,000 active; Protein RecA (Mycobacterium tuberculosis (strain ATCC 25618 / H37Rv)), P9WHJ3; in the data active = inhibition above about 30%; inconclusive = no clear call, values can overlap the other calls;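 also: 0% = vehicle wells and 100% = reference inhibitor control wells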
# Target sequence (P9WHJ3 whole entry, looked up): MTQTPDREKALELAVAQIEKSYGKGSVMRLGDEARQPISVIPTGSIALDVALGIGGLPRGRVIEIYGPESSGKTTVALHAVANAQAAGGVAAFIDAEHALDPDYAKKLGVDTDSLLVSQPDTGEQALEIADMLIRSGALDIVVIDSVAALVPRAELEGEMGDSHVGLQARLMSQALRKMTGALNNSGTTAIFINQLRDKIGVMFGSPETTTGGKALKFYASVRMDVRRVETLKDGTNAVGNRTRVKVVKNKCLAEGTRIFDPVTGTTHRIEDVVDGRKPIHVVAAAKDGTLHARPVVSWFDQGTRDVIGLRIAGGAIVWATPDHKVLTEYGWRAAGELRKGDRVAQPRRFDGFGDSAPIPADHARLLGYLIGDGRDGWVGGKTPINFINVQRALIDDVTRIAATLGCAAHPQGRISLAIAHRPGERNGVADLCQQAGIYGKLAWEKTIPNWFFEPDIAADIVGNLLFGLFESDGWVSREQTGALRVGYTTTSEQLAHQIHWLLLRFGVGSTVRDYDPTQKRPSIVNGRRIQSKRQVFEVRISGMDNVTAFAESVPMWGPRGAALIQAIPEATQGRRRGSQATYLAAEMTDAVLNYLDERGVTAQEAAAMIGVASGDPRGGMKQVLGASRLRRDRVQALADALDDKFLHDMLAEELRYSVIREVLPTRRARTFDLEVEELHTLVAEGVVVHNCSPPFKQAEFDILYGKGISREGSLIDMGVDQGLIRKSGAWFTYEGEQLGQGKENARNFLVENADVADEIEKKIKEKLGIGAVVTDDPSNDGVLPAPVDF
# YopH PTP inh = YopH tyrosine phosphatase inhibitors, primary screen, biochemical, fluorescence Ex485/Em525; AID 898, 2007; YopH tyrosine phosphatase [Yersinia enterocolitica]; inhibition, %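 (about 10 µM by stock and volumes)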; 0.16% of 140,000 active;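 active = inhibition of 50% or more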;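 also: controls were vehicle for no effect and minimum signal wells for full effect; inactives centre near -20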
# Mtb bLac sens = beta-lactam sensitization of Mtb H37Rv, H37Rv | M. tuberculosis H37Rv growth with meropenem, percent inhibition; hits of this screen are not shown here | inhibition, % at 25 µM | 0.27% of 330,000 active | AID 434955, 2010;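 active = about 74% or more and at least 40 points above the plate without the antibiotic, then above 30% in a dose series; inconclusive = first-round hits that could not be retested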;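 also: growth measured after seven days incubation then overnight dye step; 0% = bacteria only wells and 100% = bacteria with antibiotic; twin plates without the antibiotic show which effects depend on it; some results filed as inactive read as strong as hits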
# Arbovirus anti repeat = also measured in Arbovirus anti; calls as there; inhibition, %; measured here: 10K subset replicate screen; many hits read low in the repeat;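 first of two repeat runs on a subset; 0% = infected and 100% = uninfected wells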
# * marks the source's active call; other numbers are inactive results; ? = inconclusive; nt = no result given.
SMILES,Arbovirus anti,Mtb H37Rv,RecA intein inh,YopH PTP inh,Mtb bLac sens,others
Cc1c(/C=N/NC(=O)C2(O)c3ccccc3-c3ccccc32)cnn1C,-5,0%,-0.3,-16,-2,
COc1ccccc1NC(=O)/C(=C/c1cccs1)NC(=O)c1ccco1,nt,0%,1.1,nt,-5,
CC(C)(Oc1ccc(CCNC(=O)c2ccc(Cl)cc2)cc1)C(=O)O,5,-3%,-1.4,-38,1,
O=[N+]([O-])c1ccc(O)c(NC(=S)Nc2ccccc2)c1,11,-2%,1.0,-14,3,
CC(=O)N[C@@H](C)C(=O)N1CCC(n2nccc2NC(=O)CCCc2ccccc2)CC1,nt,nt,-4.0,nt,-2,
O=C(COc1ccc2c(c1)oc(=O)c1ccccc12)N[C@@H](Cc1ccccc1)C(=O)O,nt,nt,-3.6,nt,-6,
Cc1nc2ccc(NC(=O)N3CCOCC3)cc2s1,0,-3%,-4.5,2,15,
Cc1cc(C)nc(N2CCCC(C(=O)Nc3cccc(Cl)c3)C2)n1 (configuration not stated),nt,nt,-0.2,nt,6,
COc1ccc(-c2nc3ccccc3nc2-c2ccc(OC)cc2)cc1,nt,nt,1.8,nt,3,
CCOC(=O)CSCc1nc(-c2ccc(Cl)cc2)oc1C,-4,nt,3.0,-31,41,Arbovirus anti repeat=1
COc1ccc(OCCCC(=O)OCC(=O)c2ccc3c(c2)NC(=O)CO3)cc1,nt,nt,5.2,nt,-1,
O=c1[nH]nc2n1CCCCC2,7,-2%,1.3,-4,1,
COC(=O)C(C)N(C#N)c1nc(C)nc(C)n1 (configuration not stated),1,-1%,-0.7,-44,-17,
Cc1ccc(S(=O)(=O)N2CCOCC2)cc1NC(=O)C1=NN(c2ccccc2)C(=O)CC1,nt,nt,4.4,nt,?,
N=C(N)SCc1nc2ccccn2c1Br,0,-11%,-2.8,-34,1,
Cc1nc2ccccc2c(=O)n1-c1ccc(C(=O)O)cc1,nt,-1%,1.1,nt,-6,
S=C(Nc1ccccc1)N(CCN1CCOCC1)Cc1cccc(Cl)c1,4,5%,-4.6,nt,1,
CCOc1cc(C2C3=C(CC(C)(C)CC3=O)N(CCCOC)C3=C2C(=O)CC(C)(C)C3)ccc1O,nt,nt,-11,nt,-12,
O=c1ccc(NS(=O)(=O)c2ccccc2)cn1Cc1ccc(Cl)c(Cl)c1,-10,-8%,nt,-8,-7,
Cc1cccc(NC(=O)C2CC(O)CN2C(=O)Oc2ccccc2)c1 (configuration not stated),nt,nt,-2.7,nt,-3,
CC1Sc2ccc(S(=O)(=O)CCC(=O)N(C)Cc3ccco3)cc2NC1=O (configuration not stated),nt,nt,6.5,nt,-24,
Cc1ccc(C(=O)NN2CC(O)=C(c3nc(-c4cccc([N+](=O)[O-])c4)cs3)C2=N)cc1,-12,4%,0.2,nt,-9,
C/C(N)=C(/C#N)C(=O)COC(=O)c1cccc(O)c1,19,3%,1.5,nt,-9,
COCc1ccc(C(=O)N2CCCC(Nc3ccc(F)c(F)c3)C2)s1 (configuration not stated),nt,nt,-1.9,nt,?,
CC1CCN(S(=O)(=O)c2ccc3ncn(CC(=O)N4CCN(C)CC4)c(=O)c3c2)CC1,4,2%,-2.1,nt,1,
COC(=O)C1CCN(C(=O)COC(=O)c2ccc(=O)n(Cc3ccccc3)n2)CC1,nt,nt,0.9,nt,-8,
O=C(CN1C(=O)CSc2ccc(S(=O)(=O)N3CCOCC3)cc21)NCCCN1CCc2ccccc2C1,5,2%,1.9,nt,-3,
CC(C)CNS(=O)(=O)c1cc2c3c(c1)CCC(=O)N3CCC2,nt,nt,-5.2,nt,-11,
CCOc1ccc(NC(=O)CN2C(=O)CSc3ccc(S(=O)(=O)N4CCOCC4)cc32)cc1,nt,nt,0.8,nt,3,
O=C(CCCc1c[nH]c2ccccc12)Nc1ccc(S(=O)(=O)Nc2ncccn2)cc1,nt,4%,-0.3,nt,-2,
COc1cccc(/C=N/Nc2nc3ccccc3n3cnnc23)c1,-7,4%,-3.1,-9,4,
CC1CCN(C(c2ccc(N(C)C)cc2)c2nnnn2Cc2ccc(F)cc2)CC1 (configuration not stated),-2,3%,-4.1,-27,-7,
COC(=O)c1ccc(C(=O)OC)c(NC2=NS(=O)(=O)c3ccccc32)c1,-1,-12%,5.7,-5,8,
CCN(CC)C(=O)c1ccc(S(=O)(=O)NCc2cccnc2)cc1,10,-8%,-1.0,-6,-2,
CCc1nnc(NS(=O)(=O)c2ccc(N/C=C(\C=O)c3nc4cc(Cl)ccc4o3)cc2)s1,-2,0%,-3.2,nt,77,
O=C(CCC(=O)N/N=C/c1ccccc1O)NCc1ccccc1,-29,2%,-2.6,-18,8,
CC(C)(C)c1nc(CN2CCCCC2)cc(CN2CCCCC2)c1O,14,1%,nt,0,3,Arbovirus anti repeat=13
O=S(=O)(c1cccc2nsnc12)N1CCc2ccccc21,11,-8%,2.8,-14,nt,
Clc1ccc(CSc2cc3c(nn2)-c2ccccc2CC3)cc1,11,4%,4.8,-21,91,
COc1ccc(N2CCN(C(CNC(=O)C(=O)NCc3ccc4c(c3)OCO4)c3ccco3)CC2)cc1 (configuration not stated),-15,6%,-2.2,nt,69,
COc1ccnc2c1c(=O)n(Cc1cccc(Cl)c1)c(=O)n2C,nt,nt,3.4,nt,2,
CCCc1ccc(C(=O)NNc2cccc(C)c2)cc1,nt,68%,2.1,nt,94,
CC(C)OCCCNC(=O)Cn1ncc2c(=O)oc3ccccc3c21,-4,-12%,-2.7,1,2,
Cc1cc(C)c[n+](-c2[nH]c(=O)sc2/C=N/N=C(\N)[S-])c1,4,3%,-1.1,nt,0,
O=C(c1ccc(C(F)(F)F)cc1)N1CCN(c2ccc(N3CCOCC3)nn2)CC1,nt,nt,-4.7,nt,-10,
COc1ccc(C)cc1NC(=O)Nc1ccc2c(c1)CCC2,nt,nt,3.6,nt,37,
O=C(C1CCC(Cn2c(=S)[nH]c3ccccc3c2=O)CC1)N1CCN(c2ccccn2)CC1 (configuration not stated),1,70%,-1.1,nt,97,
CN(C)S(=O)(=O)c1ccc(NC(=O)COC(=O)CC2CC3CCC2C3)cc1 (configuration not stated),3,-1%,-2.0,nt,6,
CCCNS(=O)(=O)c1ccc(N2CCCC2=O)c([N+](=O)[O-])c1,9,6%,0.1,-25,-10,
CCCC(=O)NC(=S)Nc1ccccc1OC,-3,-6%,-4.3,-1,-2,
Nc1nc(-c2cc3ccccc3o2)cs1,nt,4%,0.0,nt,70,
CCOc1cc(NC(=O)C2CC2)c(OCC)cc1NC(=O)CCn1nnc2ccccc21,-4,0%,0.0,-20,-2,
COc1cccc(C(=O)OC2CCN(C)CC2)c1,-2,2%,0.3,nt,0,
COC(=O)C1=NN[C@H](C(=O)OC)[C@H]1c1ccccc1,-4,-3%,-1.3,-30,-1,
Cc1c(C)c(C)c(CO/N=C/c2cccs2)c(C)c1C,nt,1%,0.0,nt,-5,
CC(C)(C)c1ccc(CCC(CC(=O)O)CC(=O)O)cc1,1,-2%,2.3,nt,10,
CCn1c(SCC(=O)N2CCOCC2)nc2oc3c(Cl)cc(Cl)cc3c(=O)c2c1=O,10,-4%,13,-37,10,
COc1cccc(-c2cc(-c3cccnc3)nc(N)c2C#N)c1,nt,-1%,-3.1,nt,-5,
CC(C)(C)OC(=O)NCCCCCc1nnc(SCc2ccccc2)o1,nt,33%,0.3,nt,69,
CCOC(=O)c1ccc(NC(=S)N2CCSC2c2ccc(Br)cc2)cc1 (configuration not stated),-16,?,6.1,-19,72,

# More entries.
SMILES,Arbovirus anti,Mtb H37Rv,RecA intein inh,YopH PTP inh,Mtb bLac sens,others
COc1ccc(-c2cn3c(C)c(C(=O)NC(C)C)sc3n2)cc1,-2,nt,-0.4,-37,-7,
Cc1ccc(/C=C/C2=NN(C)C(=O)CC2)cc1,-6,-2%,8.8,nt,0,
COc1ccc(Nc2nc(N3CCN(C)CC3)nc3ccccc23)c(OC)c1,-30,8%,nt,nt,4,
Cc1ccc(CNCC2CCCO2)o1 (configuration not stated),6,3%,1.3,-35,-2,
COc1ccc(NC(=S)NC(NC(=O)CCl)C(Cl)(Cl)Cl)c([N+](=O)[O-])c1 (configuration not stated),1,-2%,55*,nt,6,
CN(Cc1ccccc1)C(=O)NC1CCCCC1,-1,1%,-0.5,-8,-23,
COc1ccc(S(=O)(=O)NNC(=O)Nc2ccccc2OC)c(OC)c1,nt,nt,0.0,nt,-4,
COc1ccc(CCn2c(-c3cccc([N+](=O)[O-])c3)nc3nc4ccccc4nc32)cc1OC,1,6%,2.7,6,-4,
C[C@H](O)CC1=C[C@H](O)[C@@H](C)OC1=O,5,9%,1.3,nt,-1,
CCOC(=O)N1CCN(S(=O)(=O)c2ccc(F)c(C(=O)Nc3ccc(C)c(Cl)c3)c2)CC1,3,-6%,6.4,-21,4,
NCCOc1ccccc1-c1ccccc1,7,6%,1.3,-24,-8,Arbovirus anti repeat=-2
OC1CN=C2CCCc3c2n(c2ccc(Cl)cc32)C1 (configuration not stated),-19,-8%,-37,-14,-6,
O=C1C(NS(=O)(=O)c2cccs2)=C(N2CCN(Cc3ccccc3)CC2)C(=O)c2ccccc21,nt,-6%,6.5,nt,-8,
COc1ccccc1NS(=O)(=O)c1ccc(C)c(NC(=O)c2ccc(S(=O)(=O)N3CCCCCC3)cc2)c1,-2,-5%,-1.4,-25,0,
S=c1[nH]nc(-c2cc(-c3ccccc3)n[nH]2)n1/N=C/C=C/c1ccco1,nt,-4%,19,nt,-1,
Fc1ccccc1NC(=S)NCCc1ccc(Cl)cc1,nt,nt,2.6,nt,1,
Cc1ccc(C(=O)OCN2C(=O)c3ccccc3C2=O)c(O)c1,nt,nt,-3.0,nt,-7,
CCOC(=O)C(=Nc1ccccc1)NO,-3,0%,-1.9,-24,-2,
COc1ccc(-c2nnc3cccc(Cl)n23)c(OC)c1,nt,nt,5.1,nt,-4,
CCCC(c1nnnn1Cc1ccc(OC)cc1)N1CCC(C(N)=O)CC1 (configuration not stated),-2,-4%,1.7,-36,-3,
COc1ccc(-n2cc(CN[C@H]3CCCCNC3=O)c(-c3cccc(F)c3)n2)cc1,nt,4%,-1.7,nt,21,
O=C(CCCOc1ccccc1)Nc1ccc(S(=O)(=O)Nc2ccccn2)cc1,6,-3%,2.0,nt,1,
CCn1cc(/C=N\NC(=O)c2cc(-c3ccccc3OC)nc3ccccc23)c(C)n1,-4,5%,3.8,-18,2,
NNC(=O)CN1C(CN2CCOCC2)=Nc2ccc(Br)cc2C1c1ccccc1 (configuration not stated),0,1%,2.2,nt,7,
COC(=O)Nc1ccc(S(=O)(=O)Nc2ncccn2)cc1,11,0%,-2.4,nt,-6,
CCCCCc1nc2ccccc2c(=O)n1-c1ccc(Cl)cc1[N+](=O)[O-],3,1%,-0.6,-31,-4,
CC(C)OC(=O)CC12CN3CN(C1)CC(CC(=O)OC(C)C)(C3)C2=O,8,-3%,-1.1,-11,-8,
O=C(c1ccc(F)cc1)N1CCCCC(S(=O)(=O)c2ccccc2)C1=O (configuration not stated),5,6%,-3.5,-31,4,
Cc1ccc(S(=O)(=O)N2CCN(C(=O)C3CC3C)CC2)c(C)c1 (configuration not stated),nt,nt,-1.5,nt,1,
COC(=O)/C=C1\S/C(=N/NC(=O)c2ccc(OC)cc2)NC1=O,12,5%,1.3,nt,-4,
O=C(c1cccc2ccccc12)C1CCCN(Cc2ccon2)C1 (configuration not stated),nt,6%,-15,nt,4,
O=C(C1CCC1)N1CCN(S(=O)(=O)c2ccc(F)cc2)CC1,nt,nt,4.1,nt,-14,
O=C(CN1C(=O)COc2ccccc21)N(Cc1ccccc1)Cc1ccccn1,-1,-2%,1.1,-26,-5,
COCCn1c(=NC(=O)/C=C/c2ccccc2)sc2cc(NC(C)=O)ccc21,-1,8%,-11,-33,13,

# Entries listed so far that contain a COOH group:
SMILES,Arbovirus anti,Mtb H37Rv,RecA intein inh,YopH PTP inh,Mtb bLac sens,others
CC(C)(Oc1ccc(CCNC(=O)c2ccc(Cl)cc2)cc1)C(=O)O,5,-3%,-1.4,-38,1,
O=C(COc1ccc2c(c1)oc(=O)c1ccccc12)N[C@@H](Cc1ccccc1)C(=O)O,nt,nt,-3.6,nt,-6,
Cc1nc2ccccc2c(=O)n1-c1ccc(C(=O)O)cc1,nt,-1%,1.1,nt,-6,
CC(C)(C)c1ccc(CCC(CC(=O)O)CC(=O)O)cc1,1,-2%,2.3,nt,10,

# Assay outcomes: PubChem BioAssay, several laboratories

# An excerpt, so the mix of outcomes need not match the whole.
